FGF22 binding – shifts melting point of recombinant human FGF22; Q9HCT0; recombinant FGF22 thermal shift, SYPRO orange fluorescence; percent of sucrose octasulfate shift, DMSO zero; calls only at 9.99 µM; AID 651658; 340,000 compounds, 1.5% hits;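 active = melting point raised past a set limit in the mean and every replicate; three in four hits are not shown here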
Target sequence (Q9HCT0 whole entry, looked up): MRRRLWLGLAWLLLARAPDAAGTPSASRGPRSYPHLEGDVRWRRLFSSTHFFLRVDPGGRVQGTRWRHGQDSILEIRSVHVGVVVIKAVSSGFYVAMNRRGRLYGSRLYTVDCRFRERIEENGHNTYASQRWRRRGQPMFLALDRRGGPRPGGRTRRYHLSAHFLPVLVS
LANA-H2B inh – blocks KSHV LANA binding to histone H2A/H2B; Q9QR71; cell-free LANA-H2A/H2B peptide, fluorescence polarization; inhibition, % (no concentration beside the values); 320,000 compounds, 0.6% hits; AID 2629; in the data active = inhibition mostly above about 10%, no sharp cut-off; inactive = mostly below about 6.7%;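 also: stock transfer was 7.5 nL into about 10 µL; 0% = median of vehicle wells and 100% = median of positive control wells; one replicate is shown; the record names a cut of 25% in any replicate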
Beta2AR agonist – agonists of human beta-2 adrenergic receptor inducing internalization; P07550; Am2.2-beta2AR cells, FAP receptor internalization, flow cytometry; reference of the scale not given here; 340,000 compounds, 0.43% hits; response, % (concentration not given with the values); AID 504454;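 active = response above a set limit, near 3 SD of response in nonfluorescent compounds, cut at about 42% in these data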;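 also: stock transfer was 100 nL into about 11 µL; a reference agonist was the positive control; negative values mostly stem from fluorescent compounds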
Target sequence (P07550 whole entry, looked up): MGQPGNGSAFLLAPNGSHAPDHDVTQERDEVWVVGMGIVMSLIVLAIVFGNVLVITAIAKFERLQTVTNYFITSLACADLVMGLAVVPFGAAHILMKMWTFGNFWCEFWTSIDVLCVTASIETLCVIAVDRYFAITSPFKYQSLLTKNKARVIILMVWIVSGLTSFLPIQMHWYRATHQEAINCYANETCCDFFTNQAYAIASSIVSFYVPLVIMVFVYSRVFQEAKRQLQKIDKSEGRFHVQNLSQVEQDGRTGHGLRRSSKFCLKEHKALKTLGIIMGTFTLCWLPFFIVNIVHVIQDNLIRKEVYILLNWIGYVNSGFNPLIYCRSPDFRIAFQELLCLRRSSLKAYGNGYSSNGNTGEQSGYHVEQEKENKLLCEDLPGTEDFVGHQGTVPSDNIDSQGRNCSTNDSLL
HNF4A DNA FP – change in binding of human HNF4 alpha to DNA. 360,000 compounds, 0.3% hits. HNF4a-FITC DNA binding, fluorescence polarization, 1 h. P41235. activity change, % at 10 µM; in the data active = activity change above about 30%, passing the limit was not always enough;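 also: controls were the assay level and a saturating level of protein; the project sought stronger binding though the title names inhibitors; some compounds called inactive have numbers as strong as hits; positive values seem to mean higher polarization but the record does not say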
ALR inh – human ALR oxidase inhibition via reduced H2O2. P55789. AID 485317. 290,000 compounds, 3.8% hits. purified ALR, DTT oxidation, H2O2 HRP-luminol luminescence. inhibition, % (test concentration not listed);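 active = mean and each replicate at 75% or more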;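 also: stock transfer was 7.5 nL into about 7.5 µL; 0% = neutral wells and 100% = wells with inactivated enzyme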
Target sequence (P55789 whole entry, looked up): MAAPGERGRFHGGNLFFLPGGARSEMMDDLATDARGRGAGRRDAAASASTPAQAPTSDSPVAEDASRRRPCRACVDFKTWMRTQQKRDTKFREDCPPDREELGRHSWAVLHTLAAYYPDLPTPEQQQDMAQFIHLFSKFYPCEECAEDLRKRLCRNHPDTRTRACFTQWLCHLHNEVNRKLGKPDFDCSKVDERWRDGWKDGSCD
UCH37 inh – blocks the human deubiquitinase UCH37; Q9Y5K5; 330,000 compounds, 0.33% hits; purified proteasome/UCH37, Ub-AMC cleavage fluorescence; inhibition, % (concentration not given with the values);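 active = mean of two replicates above 20%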;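 also: 0% = compound-free wells with enzyme and 100% = wells lacking proteasome; stock transfer was 100 nL into about 20 µL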
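system = Proteasome-associated human UCH37 deubiquitinase | amount = 0.15 nM proteasome as dispensed | medium = pH 7.4 Tris-HCl (50 mM) with ovalbumin, ATP-MgCl2, DTT | incubation = 30 min preincubation with enzyme, 25 min cleavage at room temperature | detection = AMC fluorescence 355/460 nm | read-out basis = percent inhibition | controls = no-proteasome and no-compound wells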
Ecoli growth – inhibitors of Escherichia coli growth. OD600, 23 h; hits give low values. OD600 absorbance (concentration not given with the values). 330,000 compounds, 0.21% hits. AID 1053175;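 active = OD600 absorbance below the run mean of sample wells minus 3.6 SD, in any replicate, cut at about 0.56 in these data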;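 also: stock transfer was 300 nL into about 60 µL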
Starred values were filed as active, the others as inactive; i = inactive; nt = no result given.

nr | molecule | FGF22 binding | LANA-H2B inh | Beta2AR agonist | HNF4A DNA FP | ALR inh | UCH37 inh | Ecoli growth
1 | O=C(N/N=C/c1ccc(Br)s1)Nc1ccccc1 | i | 1.2 | -5 | -2.5 | 0 | nt | nt
2 | CC(=O)C(=[N+]=[N-])C(=O)NCc1ccccc1 | nt | -0.5 | -1 | -0.8 | -1 | 2.3 | 0.81
3 | COc1cc(C(=O)ON=C2C3CC4CC(C3)CC2C4)cc(OC)c1OC | i | -0.1 | 15 | 1.8 | -7 | 1.7 | 0.69
4 | CCc1cc(C(=O)O)c(NC(=O)c2cc(OC)c(OC)c(OC)c2)s1 | i | -5.1 | -3 | 0.0 | 45 | 8.9 | 0.69
5 | CCOc1cccc2sc(N(CCN(CC)CC)C(=O)c3ccc(S(=O)(=O)N4CCCC4)cc3)nc12 | i | -3.3 | 13 | 2.3 | -6 | 0.2 | 0.71
6 | O=C(Nc1ccc(Br)cc1)C1Cc2ccccc2O/C1=N\O (stereo unspecified) | i | -3.1 | 0 | 0.3 | -15 | nt | nt
7 | Fc1ccccc1N1CCN(c2ncnc3[nH]ncc23)CC1 | nt | 2.9 | 3 | 1.0 | -3 | 4.4 | 0.71
8 | Cc1ccc(S(=O)(=O)Cn2nnnc2C(C(C)C)N2CCN(C(=O)c3ccco3)CC2)cc1 (stereo unspecified) | nt | 4.1 | -3 | -9.9 | 0 | 0.0 | 0.72
9 | O=[N+]([O-])c1ccccc1S(=O)(=O)Nc1ccc(-c2ccc(N3CCOCC3)nn2)cc1 | i | nt | 9 | -2.2 | nt | 5.5 | 0.7
10 | COc1ccc(CC(O)CC2c3c(cc4c(c3OC)OCO4)CCN2C)cc1 (stereo unspecified) | i | -5.9 | 8 | -2.0 | -15 | 5.1 | 0.61
11 | O=C(NCc1ccc2c(c1)OCO2)C1CCN(C(=O)Nc2ccc(Cl)cc2)CC1 | nt | -0.2 | -5 | -0.3 | 0 | 2.5 | 0.73
12 | O=C(Cn1c(=O)cnc2ccccc21)N1CCN(S(=O)(=O)c2cccc([N+](=O)[O-])c2)CC1 | i | -2.1 | 3 | 4.0 | -1 | 2.1 | 0.7
13 | CN(C)/C(CN1CCOCC1)=C1\N=C(c2ccccc2)OC1=O | i | 0.8 | -5 | 2.0 | 20 | 16 | 0.66
14 | O=C(O)CCc1ccc(-c2ccc(Br)cc2)n1-c1cccc(O)c1 | i | 5.7 | 6 | 1.3 | 20 | 1.7 | 0.67
15 | Cc1ccc(NC(=O)CCS(=O)(=O)c2ccccc2)cc1S(=O)(=O)N1CCCCCC1 | i | nt | -2 | -0.6 | nt | 0.5 | 0.69
16 | Cc1cccc(NC(=S)N/N=C/c2cccc([N+](=O)[O-])c2)c1 | nt | 2.2 | -1 | -0.7 | -3 | nt | nt
17 | CCCC(C(=O)NCc1ccccc1)N(C(=O)Cn1nnc(-c2cccs2)n1)c1ccc2c(c1)OCCO2 (stereo unspecified) | nt | -0.5 | -9 | 0.6 | -2 | 2.2 | 0.8
18 | O=C(Nc1ccccc1C(=O)NCC1CCCO1)c1ccccc1F (stereo unspecified) | i | 1.5 | -12 | -0.5 | 2 | -1.5 | 0.69
19 | COc1cc(C(=S)N2CCOCC2)ccc1OC(=O)c1cc(OC)c(OC)c(OC)c1 | i | -3.5 | 5 | 0.9 | 0 | 4.8 | 0.69
20 | CCN(CC)CCC#CC(O)(c1ccccc1)c1ccccc1 | nt | 0.1 | 0 | 0.6 | -4 | 1.7 | 0.71

Full records as entered above. Order of screens: FGF22 binding	LANA-H2B inh	Beta2AR agonist	HNF4A DNA FP	ALR inh	UCH37 inh	Ecoli growth
Listed for O=C(NCc1ccc2c(c1)OCO2)C1CCN(C(=O)Nc2ccc(Cl)cc2)CC1 = nt	-0.2	-5	-0.3	0	2.5	0.73
Listed for COc1cc(C(=S)N2CCOCC2)ccc1OC(=O)c1cc(OC)c(OC)c(OC)c1 = i	-3.5	5	0.9	0	4.8	0.69

Going on with the list:
nr | molecule | FGF22 binding | LANA-H2B inh | Beta2AR agonist | HNF4A DNA FP | ALR inh | UCH37 inh | Ecoli growth
21 | Cc1ccc(/C=N/n2c(C3CCCCC3)n[nH]c2=S)s1 | nt | -6.2 | -2 | 4.2 | -11 | nt | nt
22 | COc1ccc(-c2csc(N(CCCN(C)C)C(=O)c3ccc(F)cc3)n2)cc1 | i | -5.1 | 1 | 1.8 | 87* | 1.3 | 0.66
23 | O=C(CCSc1nc2ccccc2o1)Nc1ccccc1 | i | 3.9 | 7 | -0.9 | 0 | -0.5 | 0.67
24 | CCOC(=O)C1=C(COC(=O)/C=C/c2cccc(Cl)c2)NC(=O)NC1C (stereo unspecified) | i | 6.7 | 2 | -1.6 | -6 | 3.2 | 0.69
25 | CCN(CC)S(=O)(=O)c1ccc2c(c1)nc(SCC(=O)N1CCOCC1)n2-c1ccccc1OC | nt | 4.7 | 1 | -1.1 | -2 | -0.8 | 0.73
26 | CCN(CC)c1ccc(NC(=O)c2ccccc2OCC(=O)OC)cc1 | i | 2.0 | -11 | 1.5 | nt | -0.9 | 0.67
27 | CCOC(=O)c1c(C)n(C)c2ccc(O)c(CN3CCC(C)CC3)c12 | nt | 0.0 | 1 | -4.8 | -4 | 0.9 | nt
28 | CCN(CC)C(=O)CSc1nc(N)c(C#N)c(-c2cccs2)c1C#N | nt | -5.3 | -17 | 4.1 | -4 | -97 | 0.71
29 | COc1ccc(-c2ccc3c(c2)S(=O)(=O)c2cccc(C(=O)N4CCN(C5CCCCC5)CC4)c2C3=O)cc1OC | i | 1.6 | 7 | 35 | -2 | -2.2 | 0.7
30 | O=C(CSc1ccc(Cl)cc1)NC(=O)c1ccccc1 | i | -0.3 | -2 | -2.2 | 3 | 1.8 | 0.65
31 | COc1ccc2c(c1)CCCC2NS(=O)(=O)OCC(Cl)(Cl)Cl (stereo unspecified) | i | 3.0 | 5 | -0.4 | 1 | 5.5 | 0.63
32 | Cc1ccc(NC(=O)NCc2ccc3c(c2)OCO3)c(C)c1 | i | 0.1 | -2 | -5.3 | 1 | 1.9 | 0.69
33 | COc1ccc(CCNC(=O)C(=O)NCCOc2ccccc2Cl)cc1OC | nt | 3.9 | -2 | 3.4 | -44 | 3.4 | 0.62
34 | O=C(COc1ccc(S(=O)(=O)N2CCCC2)cc1Cl)NCc1ccco1 | nt | 3.6 | -3 | 0.1 | -2 | 3.6 | 0.69
35 | COc1ccccc1-c1sc2cc3c(cc2c1-c1ccc(OCCN2CCCCC2)cc1)OCO3 | i | 4.7 | 38 | 9.5 | -4 | -7.6 | 0.63
36 | COc1cccc(-c2csc(N3CCN(CC(=O)Nc4ccc5c(c4)OCO5)CC3)n2)c1 | i | 2.6 | 25 | 6.0 | nt | 4.4 | 0.73
37 | c1ccc(OCCOCCN2CCOCC2)cc1 | nt | -3.1 | -6 | -0.2 | -2 | 3.4 | 0.71
38 | CCc1ccc(NC(=O)C2C3CCC(O3)C2C(=O)O)cc1 (stereo unspecified) | i | -0.8 | -1 | 1.2 | -5 | 3.6 | 0.69
39 | CS(=O)(=O)c1ccc(S(=O)(=O)N2CCC(CO)(CCCc3ccccc3)CC2)cc1 | i | -0.9 | 3 | 4.2 | -6 | 6.8 | 0.75
40 | O=C(NCc1ccc(F)cc1)C1CCCN(S(=O)(=O)c2ccc(Br)s2)C1 (stereo unspecified) | i | 0.6 | -17 | 1.9 | -12 | 3.1 | 0.67
41 | O=C(NCN1CCc2ccccc2C1)c1cnccn1 | i | 1.4 | 5 | 1.3 | -2 | 3.9 | 0.68
42 | N#Cc1cc2ccccc2nc1SCc1ccccn1 | nt | -2.7 | -11 | 0.3 | -2 | -1.9 | 0.69
43 | CCOC(=O)C1CCN(C(=O)c2cc3cc(Cl)ccc3[nH]2)CC1 | i | -0.1 | 4 | 0.2 | 6 | -0.8 | 0.68
44 | CCOCCCN1CC(C(=O)NCCc2ccccc2)CC1=O (stereo unspecified) | nt | 0.3 | -4 | 1.1 | 4 | 1.4 | 0.72
45 | CCN(C[C@H]1N[C@@](CC)(C(=O)OC)[C@H]2C(=O)N(C)C(=O)[C@@H]12)S(=O)(=O)c1ccc(C(C)(C)C)cc1 | i | 0.5 | -2 | -1.9 | nt | 3.7 | 0.71
46 | O=C1CCN(C(=O)Nc2ccccc2)N1 | nt | 2.0 | -13 | 2.0 | 30 | 2.4 | 0.71
47 | COc1ccccc1NOC(=O)CCOc1ccccc1 | i | nt | -11 | -2.5 | nt | 3.1 | 0.68
48 | O=C(c1cccc(C(F)(F)F)c1)N1CCOC12CCN(c1ncc(C(F)(F)F)cc1Cl)CC2 | nt | 4.0 | 2 | 3.2 | -7 | 3.0 | 0.74
49 | CCN1C(=O)NC(c2ccc(Cl)cc2)C2=C1CCCC2=O (stereo unspecified) | i | 1.2 | -9 | 3.9 | -5 | 3.1 | 0.69
50 | O=C(NCCOc1cccc2cccnc12)c1cccs1 | nt | 9.9 | -4 | 0.2 | -19 | 0.6 | 0.69
51 | Cc1ccc(SCC(=O)NCCCc2ccccc2)cc1 | i | 3.2 | -4 | -3.5 | -2 | 3.2 | 0.72
52 | C=CCC1(N(C(C)=O)c2ccccc2C)CCCCC1 | i | 1.2 | 1 | -2.2 | 2 | nt | nt
53 | COc1ccccc1/C=N/NC(=O)c1cccc2ccccc12 | i | 1.7 | -2 | 2.1 | -1 | nt | nt
54 | CCOC(=O)Nc1ccc2nc(Sc3ccc(Cl)cc3)sc2c1 | i | -0.1 | 3 | 1.5 | 10 | nt | nt
55 | O=C(Nc1ccc(F)cc1)c1sc2cc(C(F)(F)F)cnc2c1-c1cccs1 | nt | 2.6 | 6 | 0.0 | -4 | -27 | 0.8
56 | CN(C)/C=C1\C(=O)N(c2ccc(Cl)cc2)CS1(=O)=O | nt | -2.0 | -5 | -0.6 | 12 | 4.1 | 0.69
57 | ClCc1nc2ccccc2c2ccccc12 | i | 1.1 | 15 | -1.7 | 5 | 3.1 | 0.7
58 | CC(C)[C@@H](N)C(=O)NCC1CCC(C(=O)N[C@@H](Cc2ccccc2)C(=O)O)CC1 (stereo partly specified) | i | 0.3 | -3 | -2.6 | -1 | 2.1 | 0.69
59 | N/C(=N\OC(=O)CCC1CCCCC1)c1ccc([N+](=O)[O-])cc1 | nt | -1.7 | 0 | -1.8 | nt | nt | nt
60 | CC(=O)Nc1ccc(NC(=O)C(C)OC(=O)CN2C(=O)C3CCCCC3C2=O)cc1 (stereo unspecified) | i | nt | -9 | -3.7 | nt | -0.9 | 0.66
61 | Cc1cc2oc(=O)cc(CN(C)Cc3ccccc3Cl)c2cc1C | i | -7.0 | 6 | 0.6 | -4 | 0.7 | 0.7
62 | COc1ccccc1NC(=O)CSc1nnnn1-c1ccc(C(=O)O)cc1 | i | 2.1 | 0 | 0.8 | -13 | 0.6 | 0.71
63 | Cc1cccc(C)c1NC(=O)N1C(C(=O)O)CSC1C(=O)O (stereo unspecified) | nt | -0.9 | 0 | 1.1 | nt | 0.3 | 0.7
64 | COc1cc(CNc2cccc(C(=O)O)c2)cc(Br)c1OCC(=O)NC(C)(C)C | nt | 0.4 | 1 | 1.2 | -61 | -23 | 0.69
65 | CC(C)(C)c1cc(=O)[nH]c(SCc2ccccc2)n1 | i | 0.2 | 8 | 4.1 | -14 | 4.9 | 0.68
66 | ClCC1=Nc2ccccc2Cc2ccccc21 | i | -3.2 | 3 | 1.9 | -2 | 1.3 | 0.63
67 | Cc1cccn2cc(-c3ccc(S(=O)(=O)N4CCCCC4)cc3)nc12 | i | 4.1 | 4 | 0.5 | nt | -196 | 0.65
68 | O=C(c1ccc(Br)s1)N1CCN(C/C=C/c2ccccc2)CC1 | nt | -5.3 | -4 | 3.5 | -5 | 3.3 | 0.64
69 | O=C(NCC1CCCO1)c1cc2c([nH]c3ccccc32)c(-c2cccc(Br)c2)n1 (stereo unspecified) | i | -6.3 | 3 | 1.1 | -4 | -16 | 0.73
70 | C=CCn1c(-c2cc3cccc(OC)c3o2)n[nH]c1=S | i | -2.8 | 15 | -1.4 | 29 | -35 | 0.69
71 | Cc1ccc(-c2csc(N3CCN(S(=O)(=O)c4ccc5c(c4)NC(=O)CO5)CC3)n2)cc1 | i | 2.6 | 12 | -2.6 | 12 | 4.2 | 0.67

A portion of the library. The share of hits here may be higher or lower than overall.
